STAT3 SMM: binds human STAT3 on microarray. Small molecule microarray, His-STAT3 binding, anti-His fluorescence. calls only. hit rate 0.2% among 17,000. AID 624138;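 active means compounds whose four printed spots each show fluorescence over background unusually high for their array block, chance value under 7%; compounds were printed on slides so no solution concentration is given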;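 further: about 2 pmol printed per array spot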
ID4 binder: binds human ID4 protein on microarray; small molecule microarray, Flag-ID4 binding, fluorescence F/B; AID 624137; hit rate 1.2% among 31,000; P47928; calls only;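 active means spot signal over background at p below 0.07 in all four prints; compounds were printed on slides so no solution concentration is given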;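 further: a binder raises fluorescence above local background on the spot; about 2 pmol printed per array spot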
Target sequence (P47928 whole entry, looked up): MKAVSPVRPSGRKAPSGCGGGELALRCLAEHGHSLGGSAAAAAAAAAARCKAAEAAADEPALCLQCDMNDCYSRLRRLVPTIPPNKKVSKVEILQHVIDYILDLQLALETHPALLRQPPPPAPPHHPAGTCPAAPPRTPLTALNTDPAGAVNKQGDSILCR
Myc binder: binders of human c-Myc; P01106; small molecule microarray, His-c-Myc binding, anti-His fluorescence; calls only; hit rate 1.5% among 17,000; AID 624141;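 active means spot fluorescence over background with P-value below 7% in all four replicate spots, showing protein binding; compounds were printed on slides so no solution concentration is given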;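 further: score is binary with 100 for all four spots passing and 0 otherwise; about 2 pmol printed per array spot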
Target sequence (P01106 whole entry, looked up): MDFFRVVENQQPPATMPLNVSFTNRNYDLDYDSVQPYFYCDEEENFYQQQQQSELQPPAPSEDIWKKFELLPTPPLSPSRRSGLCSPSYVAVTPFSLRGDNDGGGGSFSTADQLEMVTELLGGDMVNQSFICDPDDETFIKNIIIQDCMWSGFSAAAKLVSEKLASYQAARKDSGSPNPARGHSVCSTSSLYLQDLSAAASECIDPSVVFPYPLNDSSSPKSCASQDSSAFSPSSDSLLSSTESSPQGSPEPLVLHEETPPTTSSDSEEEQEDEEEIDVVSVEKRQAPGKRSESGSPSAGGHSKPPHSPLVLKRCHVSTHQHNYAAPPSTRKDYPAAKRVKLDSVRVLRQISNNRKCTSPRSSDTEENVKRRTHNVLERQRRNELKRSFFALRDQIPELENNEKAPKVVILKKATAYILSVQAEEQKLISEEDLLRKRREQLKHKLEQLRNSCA
p53 mut binder: mutant p53 (human) binding; small molecule microarray binding, anti-GST fluorescence; calls only; hit rate 0.4% among 17,000; AID 624136;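 active means compounds whose four printed spots each glow above background more than chance allows, each with a p-value under 7%; compounds were printed on slides so no solution concentration is given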;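 further: about 2 pmol printed per array spot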
Calls only; i = inactive; · = no result given; + = active, no number. The list is partial. The share of hits here may be higher or lower than overall.

SMILES	STAT3 SMM	ID4 binder	Myc binder	p53 mut binder
CC1(C)CC[C@]2(C(=O)O[C@@H]3OC[C@H](O[C@@H]4OC[C@H](O)[C@H](O)[C@H]4O)[C@H](O)[C@H]3O)CC[C@]3(C)C(=CCC4[C@@]5(C)C[C@H](O)[C@H](O[C@@H]6O[C@H](C(=O)O)[C@@H](O)[C@H](O[C@@H]7OC[C@H](O)[C@H](O)[C@H]7O)[C@H]6O)[C@@](C)(CO)C5CC[C@]43C)[C@@H]2C1 (some centres not stated)	i	i	i	i
COC(=O)c1c(C)oc2ccc(N(C(=O)c3ccccc3)S(=O)(=O)c3cccs3)cc12	i	i	i	i
COc1cc(NC(=O)COc2ccccc2[N+](=O)[O-])ccc1NC(=O)c1cccs1	i	i	i	i
CC(=O)O[C@@H]1[C@H](c2ccc(=O)oc2)C2[C@H](C)C[C@H]3[C@@H](CC[C@@H]4C[C@@H](O)CC[C@@]43C)[C@]23O[C@H]13 (some centres not stated)	i	i	i	i
C[C@@H]1CN([C@@H](C)CO)C(=O)c2cc(NC(=O)Nc3ccccc3)ccc2O[C@H]1CN(C)Cc1ccccc1	i	·	i	i
C[C@H](CO)N1C[C@H](C)[C@@H](CN(C)Cc2ccc(C(F)(F)F)cc2)OCc2cn(nn2)CCCC1=O	i	i	i	i
COc1ccc(NC(=O)Nc2cccc3c2O[C@@H](CN(C)CC2CC2)[C@H](C)CN([C@H](C)CO)C3=O)cc1	i	i	i	i
COc1cc2c(c3oc(-c4ccccc4)cc(=O)c13)C=CC(C)(C)O2	i	i	i	i
Cn1c(SCc2nc3ccccc3c(=O)[nH]2)nnc1-c1cc2ccccc2o1	i	i	i	i
COC(=O)C(CC#Cc1ccc2c(c1)[C@]1(C(=O)N2)[C@H](c2ccc(O)cc2)N2[C@H](c3ccccc3)[C@H](c3ccccc3)OC(=O)[C@H]2[C@@H]1C(=O)O)C(=O)OC	i	i	i	i
COc1ccc(S(=O)(=O)N(C)CC(=O)Nc2ccccc2)cc1Cl	i	i	i	i
C[C@@H]1CN([C@@H](C)CO)C(=O)Cc2cc(NC(=O)Nc3ccccc3)ccc2O[C@@H]1CN(C)C(=O)Nc1ccccc1	i	i	i	i
COC(=O)C(CC#Cc1ccc2c(c1)[C@]1(C(=O)N2)[C@H](C(=O)N2CCCCCCC2)[C@H]2C(=O)O[C@H](c3ccccc3)[C@H](c3ccccc3)N2[C@@H]1c1ccccc1OCCO)C(=O)OC	i	i	i	i
C[C@@H]1CN([C@H](C)CO)C(=O)Cc2cc(NC(=O)NC3CCCCC3)ccc2O[C@H]1CN(C)S(=O)(=O)c1ccccc1	i	i	i	i
C[C@@H]1CCCCO[C@@H](CN(C)C(=O)Cc2ccccc2)[C@@H](C)CN([C@@H](C)CO)C(=O)c2cc(NC(=O)Nc3ccc(F)cc3)ccc2O1	i	i	i	i
C[C@H]1CN([C@@H](C)CO)C(=O)Cc2cc(NC(=O)CCN3CCOCC3)ccc2O[C@H]1CN(C)Cc1ccncc1	i	i	i	i
COc1cc(C2NC(=O)NC(c3ccccc3)=C2C(=O)c2ccccc2)cc(I)c1OCC(=O)O (configuration not stated)	i	i	i	i
CCO[C@@H]1OC(C(=O)Nc2ccccc2)=C[C@H](c2ccc3c(c2)OCO3)[C@H]1CCCO	i	i	i	i
O=C(Nc1ccc2c(c1)OCCO2)c1ccc(CNS(=O)(=O)c2cccc(C(F)(F)F)c2)cc1	i	i	i	i
C[C@@H]1CN([C@H](C)CO)C(=O)c2cccc(NS(C)(=O)=O)c2O[C@H]1CN(C)C(=O)NC1CCCCC1	i	i	i	i
COc1ccc(CN(C)C[C@@H]2Oc3ccc(NC(=O)Nc4ccc5c(c4)OCO5)cc3CC(=O)N([C@H](C)CO)C[C@H]2C)cc1	i	+	i	i
C[C@@H]1CN([C@@H](C)CO)C(=O)Cc2cc(NC(=O)Cc3ccccc3)ccc2O[C@H]1CN(C)Cc1ccc(C(F)(F)F)cc1	i	i	i	i
COC(=O)c1cn(CC(N)=O)c2ccccc12	i	i	i	i
C[C@@H]1CCCCO[C@H](CN(C)C)[C@H](C)CN([C@H](C)CO)C(=O)c2cc(NS(C)(=O)=O)ccc2O1	i	i	i	i

Pulled one by one from the entries so far:
SMILES	STAT3 SMM	ID4 binder	Myc binder	p53 mut binder
C[C@@H]1CN([C@@H](C)CO)C(=O)Cc2cc(NC(=O)Cc3ccccc3)ccc2O[C@H]1CN(C)Cc1ccc(C(F)(F)F)cc1	i	i	i	i
C[C@@H]1CCCCO[C@H](CN(C)C)[C@H](C)CN([C@H](C)CO)C(=O)c2cc(NS(C)(=O)=O)ccc2O1	i	i	i	i

Next compounds
SMILES	STAT3 SMM	ID4 binder	Myc binder	p53 mut binder
Cc1ccc(S(=O)(=O)Nc2ccc3c(c2)CC(=O)N([C@H](C)CO)C[C@H](C)[C@@H](CN(C)C(=O)Nc2c(C)noc2C)O3)cc1	i	i	i	i
COc1ccc(NC(=O)Nc2ccc3c(c2)C(=O)N([C@H](C)CO)C[C@@H](C)[C@H](CN(C)C(=O)NC(C)C)O3)cc1	i	·	i	i
O=C1N(CCS(=O)(=O)c2ccccc2)Cc2ccccc2[C@H]2OC(c3ccc(OCCCO)cc3)=N[C@@]12Cc1ccccc1	i	i	i	i
C[C@H]1CN([C@@H](C)CO)C(=O)c2cccc(NS(=O)(=O)c3cn(C)cn3)c2O[C@H]1CN(C)CC1CC1	i	i	i	i
C[C@H]1CN([C@@H](C)CO)C(=O)c2cccc(NC(=O)NC3CCCCC3)c2O[C@@H]1CN(C)C(=O)Nc1ccccc1	i	i	i	i
COc1ccc(CN(C)C[C@H]2OCc3cn(nn3)CCCC(=O)N([C@H](C)CO)C[C@@H]2C)cc1	i	·	i	i
C[C@@H]1CN([C@H](C)CO)C(=O)Cc2cc(NC(=O)Cc3ccccc3)ccc2O[C@H]1CN(C)S(=O)(=O)c1cccs1	i	i	i	i
CNC[C@@H]1Oc2ccc(NC(=O)Nc3c(C)noc3C)cc2C(=O)N([C@@H](C)CO)C[C@H]1C	i	i	i	i
COc1ccc(NC(=O)Nc2cccc3c2O[C@H](CN(C)S(=O)(=O)c2cccs2)[C@H](C)CN([C@@H](C)CO)C3=O)cc1	i	i	i	i
COc1ccccc1NC(=O)C(CCS(C)(=O)=O)N1C(=O)c2ccc(Br)cc2C1=O (configuration not stated)	i	i	i	i
COc1ccc(NC(=O)CSc2nc(C34CC5CC(CC(C5)C3)C4)ccc2C#N)cc1	i	i	i	i
C[C@@H]1CN([C@@H](C)CO)C(=O)c2cc(NC(=O)Nc3ccc(F)cc3)ccc2O[C@H]1CN(C)C(=O)Nc1ccc2c(c1)OCO2	i	·	i	i

One compound at a time (already shown):
`COc1ccc(CN(C)C[C@H]2OCc3cn(nn3)CCCC(=O)N([C@H](C)CO)C[C@@H]2C)cc1` is entered as STAT3 SMM = i; ID4 binder = ·; Myc binder = i; p53 mut binder = i
`CNC[C@@H]1Oc2ccc(NC(=O)Nc3c(C)noc3C)cc2C(=O)N([C@@H](C)CO)C[C@H]1C` is entered as STAT3 SMM = i; ID4 binder = i; Myc binder = i; p53 mut binder = i

Next part:
SMILES	STAT3 SMM	ID4 binder	Myc binder	p53 mut binder
COc1ccc(C#Cc2ccc3c(c2)[C@]2(C(=O)N3)[C@H](c3ccc(OCCO)cc3)N3[C@H](c4ccccc4)[C@H](c4ccccc4)OC(=O)[C@H]3[C@@H]2C(=O)Nc2nc3ccccc3s2)cc1	i	i	i	i
CCn1c(SCC(=O)Nc2ccc(C(=O)O)cc2)nnc1-c1ccc(C)cc1	i	i	i	i
O=C1O[C@H](c2ccccc2)[C@H](c2ccccc2)N2[C@H]1[C@@H](C(=O)O)[C@]1(C(=O)Nc3ccc(C#CCCO)cc31)[C@H]2c1ccc(O)cc1	i	i	i	i
Cc1noc(C)c1NC(=O)Nc1ccc2c(c1)CC(=O)N([C@@H](C)CO)C[C@H](C)[C@H](CN(C)S(=O)(=O)c1cn(C)cn1)O2	i	i	i	i
O=C1Nc2ccc(Br)cc2/C1=C/c1cc2c([nH]1)CCCC2	i	·	i	i
C[C@H]1CN([C@@H](C)CO)C(=O)Cc2cc(NC(=O)Nc3cccc4ccccc34)ccc2O[C@@H]1CN(C)C(=O)Nc1cccc2ccccc12	i	i	i	i
O=C1O[C@@H](c2ccccc2)[C@@H](c2ccccc2)N2[C@@H](c3ccccc3OCCO)[C@]3(C(=O)Nc4ccccc43)[C@@H](C(=O)N3CCN(c4ncccn4)CC3)[C@H]12	i	i	i	i
C=C1C2CCC3[C@]4(C)CCC[C@@](C)(C(=O)O)C4CC[C@]3(C2)C1OC(C)=O (some centres not stated)	i	i	i	i
C[C@@H]1CN([C@H](C)CO)C(=O)c2cc(NS(=O)(=O)c3cccs3)ccc2O[C@@H](C)CCCCO[C@@H]1CN(C)C(=O)C1CCCCC1	i	i	i	i
O=C(O)CCC(=O)Nc1ccc(C(=O)O)cc1	i	i	i	i
O=C(COc1ccc([N+](=O)[O-])cc1)Nc1ccc(-c2nc3ccccc3o2)cc1	i	i	i	i
COc1ccc(-n2c(CSc3nnc(-c4ccc(OC)c(OC)c4)n3-c3ccccc3)n[nH]c2=S)cc1	i	i	i	i
COc1ccc(S(=O)(=O)N(C)C[C@H]2Oc3c(NC(=O)c4ccncc4)cccc3C(=O)N([C@@H](C)CO)C[C@H]2C)cc1	i	i	i	i
COC(=O)c1cccc(-n2c(CCC(=O)O)ccc2-c2cccs2)c1	i	i	i	i
O=C(C1=C[C@H](c2ccccc2)C[C@H](OCc2ccc(CO)cc2)O1)N1CCN(Cc2ccc3c(c2)OCO3)CC1	i	i	i	i
COC(=O)C(CC#Cc1ccc2c(c1)[C@]1(C(=O)N2)[C@H](C(=O)N2CCCCCCC2)[C@H]2C(=O)O[C@H](c3ccccc3)[C@H](c3ccccc3)N2[C@@H]1c1ccc(OCCO)cc1)C(=O)OC	i	i	i	+
COc1ccc(NC(=O)Nc2ccc3c(c2)C(=O)N([C@@H](C)CO)C[C@@H](C)[C@@H](CN(C)Cc2ccc(C(=O)O)cc2)O3)cc1	i	i	i	i
C[C@@H]1CCCCO[C@H](CN(C)Cc2ccc(Cl)c(Cl)c2)[C@@H](C)CN([C@@H](C)CO)C(=O)c2cc(NC(=O)CCC(F)(F)F)ccc2O1	i	·	i	i
CC(C)(C)NC(=O)Cn1cc(C(=O)c2ccco2)c2ccccc21	i	i	i	i
Cn1c(=O)c2c(n(C)c1=O)n(C)c(=O)n2C	i	i	i	i
CC(C)NC(=O)Nc1ccc2c(c1)C(=O)N([C@@H](C)CO)C[C@H](C)[C@H](CN(C)C(=O)c1ccncc1)OCCCC[C@@H](C)O2	i	i	i	i
O=C1CC(Cc2ccccc2)C(=O)N1CCCn1ccnc1 (configuration not stated)	i	+	i	i
C=CCNC(=O)[C@@H]1[C@H]2C(=O)O[C@H](c3ccccc3)[C@H](c3ccccc3)N2[C@H](c2ccccc2OCCO)[C@@]12C(=O)N(C(=O)OCCOC)c1ccc(C#CCCO)cc12	i	i	i	i
COc1ccccc1NC(=O)c1ccc(CSc2nc3ccccc3o2)cc1	i	i	i	i

Of the compounds above, 2 have bromine.
SMILES	STAT3 SMM	ID4 binder	Myc binder	p53 mut binder
COc1ccccc1NC(=O)C(CCS(C)(=O)=O)N1C(=O)c2ccc(Br)cc2C1=O (configuration not stated)	i	i	i	i
O=C1Nc2ccc(Br)cc2/C1=C/c1cc2c([nH]1)CCCC2	i	·	i	i

(continued)
SMILES	STAT3 SMM	ID4 binder	Myc binder	p53 mut binder
C[C@H]1CN([C@@H](C)CO)C(=O)c2cc(N(C)C)ccc2O[C@@H]1CN(C)Cc1ccncc1	i	i	i	i
COc1cccc(-c2cc(C(F)(F)F)n3nc(C(=O)NCc4ccccn4)cc3n2)c1	i	i	i	i
COc1ccc(CN(C)C[C@@H]2Oc3c(NC(=O)Nc4c(C)noc4C)cccc3C(=O)N([C@H](C)CO)C[C@@H]2C)cc1	i	i	i	i
CCCN(C)C[C@@H]1Oc2ncc(C#Cc3ccc(OC)c(OC)c3)cc2C(=O)N([C@H](C)CO)C[C@@H]1C	i	i	i	i
CC(C)NC(=O)N(C)C[C@@H]1OCc2cnnn2CCCC(=O)N([C@H](C)CO)C[C@@H]1C	i	i	i	i
CCc1c(C)nc(Nc2nc(C)c3ccc(OC)cc3n2)[nH]c1=O	i	i	i	i
CCc1ccc(OCC(=O)Nc2sc3c(c2C(N)=O)CCCC3)c(Br)c1	i	i	i	i
CC(=O)[C@]12O[C@]3(COC[C@H](c4ccccc4)N3C1=O)[C@@H]1C(=O)N(C)C(=O)[C@@H]12	i	i	i	i
Cc1ccc2cc(S(=O)(=O)NCCC(=O)O)ccc2c1	i	+	+	i
CCCn1nnnc1NC(=O)COc1ccc(Cl)c(C)c1	i	i	i	i
O=C(Cc1cc(C(=O)O)c2ccccc2n1)Nc1ccccc1	i	i	i	i
C[C@@H]1CN([C@H](C)CO)C(=O)c2cc(NC(=O)Nc3ccccc3)ccc2O[C@@H](C)CCCCO[C@@H]1CN(C)C(=O)Cc1ccccc1	i	i	i	i
COc1ccccc1N(Cc1cc2ccc(C)cc2[nH]c1=O)S(=O)(=O)c1ccccc1	i	i	i	i
C[C@@H]1CN([C@@H](C)CO)C(=O)c2cc(NS(C)(=O)=O)ccc2O[C@@H](C)CCCCO[C@H]1CN(C)C(=O)Cc1ccccc1	i	i	i	i
CC(C)NC(=O)N(C)C[C@@H]1OCCCC[C@H](C)Oc2ccc(NC(=O)Nc3ccc(C(F)(F)F)cc3)cc2C(=O)N([C@@H](C)CO)C[C@H]1C	i	i	i	i

Compound activity deposited in PubChem BioAssay by Broad Institute.
